Compound activity: PubChem BioAssay, National Center for Advancing Translational Sciences (NCATS)
A647 autofl – compound autofluorescence in A647 spectral region; max dye-equivalent concentration, M; 59,000 tested, under 10 active; Compound fluorescence, A647 channel (570/671 nm), Tris buffer; AID 592; active means above 1 µM dye equivalent; inconclusive means 0.1 to 1 µM; inactive means 0.1 µM or less;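 note: values scaled relative to a standard on each plate; highest value over a series up to 38 µM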
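Compound fluorescence was measured in 100 mM Tris buffer, pH 8.0, after 15 min at room temperature, using 570 nm excitation and 671 nm emission filters. Signal was normalized to a per-plate Alexa 647 standard curve and expressed as dye-equivalent concentration at each compound concentration.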
AID923 – qHTS Assay for Allosteric/Competitive Inhibitors of Caspase-1: Spectroscopic Profiling in AFC Spectral Region | compound fluorescence, AFC spectral region (405/520 nm); almost no hit is shown here | 75,000 tested, 1.1% active | Potency, µM (top dose mostly 57.5 µM), for the others: at the highest dose fluorescence increase, usual class: activators; active = well fitted activation curve with a large enough effect; inconclusive = small, poorly fitted or top-dose-only effect;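 note: potency is the fitted concentration of half-maximal effect; 0% is about no effect; scaled to a free AFC standard on each plate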
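Baseline compound fluorescence (AFC region, 405 nm ex/520 nm em) taken from the intercept of kinetic reads with 50 nM caspase-1 and 5 uM Ac-WEHD-AFC; normalized to an on-plate AFC standard curve; compounds titrated up to 57 uM.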
TSHR agonist – TSH receptor (human) agonism; P16473; HEK293-CNG-TSHR cells (CNG channel as cAMP sensor), membrane potential dye, cAMP; Potency, µM (titrated, usually from 57.1 µM), without a hit: top-dose activation, hits mostly activators; 73,000 tested, 0.48% active; AID 926; active = well fitted activation curve of enough size with the parental cells flat; inconclusive = any curve in the parental cells; inactive = parental cells flat and receptor cells flat or falling; note: potency is the fitted concentration of half-maximal effect; % of control where 0% means no effect; weak receptor curves with flat parental cells got no call and are not listed
Target sequence (P16473 whole entry, looked up): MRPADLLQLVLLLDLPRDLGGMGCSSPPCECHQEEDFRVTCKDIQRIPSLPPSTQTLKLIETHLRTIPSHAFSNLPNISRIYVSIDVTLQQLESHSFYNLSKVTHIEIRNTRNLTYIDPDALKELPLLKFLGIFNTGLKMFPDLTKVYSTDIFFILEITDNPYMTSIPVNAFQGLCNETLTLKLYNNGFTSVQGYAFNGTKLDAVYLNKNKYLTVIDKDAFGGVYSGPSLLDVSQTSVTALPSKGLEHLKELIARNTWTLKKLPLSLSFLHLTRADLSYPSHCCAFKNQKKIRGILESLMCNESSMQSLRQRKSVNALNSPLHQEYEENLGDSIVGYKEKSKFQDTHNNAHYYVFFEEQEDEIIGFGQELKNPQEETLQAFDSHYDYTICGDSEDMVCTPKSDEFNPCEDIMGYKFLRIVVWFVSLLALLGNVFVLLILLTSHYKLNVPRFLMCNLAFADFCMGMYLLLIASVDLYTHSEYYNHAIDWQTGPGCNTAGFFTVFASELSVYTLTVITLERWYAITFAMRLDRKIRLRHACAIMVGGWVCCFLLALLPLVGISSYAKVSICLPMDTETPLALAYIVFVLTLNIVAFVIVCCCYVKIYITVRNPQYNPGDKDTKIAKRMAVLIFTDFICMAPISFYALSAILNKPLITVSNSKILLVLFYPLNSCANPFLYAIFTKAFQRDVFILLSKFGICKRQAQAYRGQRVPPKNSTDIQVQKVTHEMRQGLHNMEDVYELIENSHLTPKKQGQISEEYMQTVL
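HEK 293 cells stably expressing TSHR and a cAMP-gated CNG channel; parental CNG-only cells as counterscreen. Cells preloaded 60 min with membrane potential dye plus 100 uM RO 20-1724, then compound 30 min; fluorescence read at 590 nm.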
A488 autofl – A488 region autofluorescence; compound autofluorescence, A488 spectral region, dye equivalency; active compounds read high; max dye equivalency, M; 59,000 tested, 0.1% active; active = above 10 nM dye equivalent; inconclusive = 1 to 10 nM; inactive = 1 nM or less; about half of its hits are not listed in these tables;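 note: highest value over a series up to 38 µM; compound alone in buffer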
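Compounds pin-transferred into 100 mM Tris buffer, pH 8.0, incubated 15 min at room temperature, then imaged with 480 nm excitation/540 nm emission filters. Fluorescence converted to Alexa 488 dye-equivalent concentration via an on-plate six-point A488 standard curve.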
Resorufin fluor – compound fluoresces in the resorufin spectral region. Compound fluorescence, resorufin region 547/598 nm, buffer; active compounds read high. max dye-equivalent concentration, M. 59,000 tested, 0.04% active. AID 588; active = above 10 nM dye equivalent; inconclusive = 1 to 10 nM; inactive = 1 nM or less; a few of its hits are not listed in these tables; note: highest value over a series up to 38 µM
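Compounds in 100 mM Tris, pH 8.0, incubated 15 min at room temperature, then fluorescence read at 547 nm excitation/598 nm emission. Signal converted to dye-equivalent concentration via an on-plate six-point resorufin standard curve, per compound concentration.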
* = called active by the depositor; i = inactive; ? = inconclusive; / = not tested or not shown; [ ] = dose if it differs, or a comment. The list is partial. The share of hits here may be higher or lower than overall.

Fields – A647 autofl | AID923 | TSHR agonist | A488 autofl | Resorufin fluor
#1 O=C(Nc1ccc(-c2nc3ncccc3o2)cc1)c1ccco1
→ 3.8e-08 | 0.4% | 0% | i | i
#2 Cn1c2c(c(=O)n(C)c1=O)C(c1cccc(Br)c1)C1C(=O)c3ccccc3C1=N2 (stereo not drawn)
→ 1e-09 | -0.3% | -8% | i | i
#3 COc1ccc(OC)c(C(=O)COC(=O)CNC(=O)C2CCCCC2)c1
→ 3.5e-09 | -0.2% | 9% | i | i
#4 COc1ccc(CC(=O)OCC(=O)NC(=O)NC2CCCCC2)cc1
→ 2.6e-08 | -1.5% | 27% | i | i
#5 COc1cc(NC(=O)C(C)Oc2ccccc2)cc(OC)c1 (stereo not drawn)
→ 2.5e-09 | -0.1% | 6% | i | i
#6 COC(=O)c1ccn(C(=O)c2ccc(Cl)cc2)n1
→ 3.4e-08 | / | / | i | i
#7 Cc1c2cnn(CC(=O)N3CCN(c4ncccn4)CC3)c(=O)c2c(C)n1Cc1ccc(F)cc1
→ / | 2.3% | 4% | / | /
#8 CC(C(=O)NC1CCCCCC1)N(c1ccccc1)S(C)(=O)=O (stereo not drawn)
→ 7e-09 | 0.5% | 8% | i | i
#9 COc1ccc(NC(=O)c2ccco2)cc1NC(=O)c1ccco1
→ 5.6e-09 | 1.4% | ? | i | i
#10 N#Cc1ccccc1-c1ccc2ncnc(NC3CC3)c2c1
→ 1e-09 | 0.3% | 9% | i | i
#11 CCCn1c(C)nc2c(N3CCN(C)CC3)nc(C)nc21
→ / | -0.4% | 3% | / | /
#12 Cc1cc(C)n(CNc2nc(C(F)(F)F)cs2)n1
→ 1e-09 | -0.4% | -4% | i | i
#13 CCN(CC)CCCCCOc1ccccc1OC
→ / | 2.1% | 5% | / | /
#14 COc1ccc(NC(=O)Nc2cccc3cccnc23)cc1
→ / | -0.5% | -20% | / | /
#15 CC(C)(C)NC(=O)C(c1ccncc1)N(Cc1cccs1)C(=O)Cn1nnc(-c2cccs2)n1 (stereo not drawn)
→ 1e-09 | 6.3% | ? | i | i

Looked up above.
#11 in AID923 = -0.4%
#7 in TSHR agonist = 4%
#5 in AID923 = -0.1%
#6 in A647 autofl = 3.4e-08
#13 in TSHR agonist = 5%

(listing goes on)
Fields – A647 autofl | AID923 | TSHR agonist | A488 autofl | Resorufin fluor
#16 Clc1ccc(CSCc2ccc(Cl)cc2Cl)c(Cl)c1
→ 1e-09 | -1.4%[11.5 µM] | 1%[11.4 µM] | i | i
#17 CCOC(=O)N1CCN(C(=O)c2cnc(Nc3ccccc3OC)c3ccccc23)CC1
→ 1.3e-08 | 9.3% | -3%[11.4 µM] | i | i
#18 CS(=O)(=O)N(CC(=O)N1CCCCCC1)c1ccc(Br)cc1
→ 1e-09 | -0.9% | -5%[11.4 µM] | i | i
#19 Cc1nn(C)c(C)c1CNC(=O)c1cnn2c1NC(c1ccccc1)CC2C(F)(F)F (stereo not drawn)
→ 1e-09 | 0.3% | -4% | i | i
#20 O=C(OCC(=O)N1CCc2ccccc21)c1ccc[n+]([O-])c1
→ 4.4e-09 | 1.3% | -5% | i | i
#21 CCOC(=O)c1c(C)n(C)c2ccc(OC)c(NC(=O)CN3CCSCC3)c12
→ 1e-09 | / | / | i | i
#22 COc1ccc(C(=O)CSc2nnc(-c3cccnc3)n2Cc2ccco2)cc1
→ 1.1e-08 | -1.8% | 5% | i | i
#23 O=c1c(CCc2ccccc2)nc2cnc(Oc3ccccc3)nc2n1C1CC1
→ 1e-09 | 2.8% | ? | i | i
#24 Cc1ccc(N(CC(=O)NCc2ccco2)S(=O)(=O)c2ccccc2)cc1
→ / | 2.8% | ? | / | /
#25 COc1ccc(C(=O)c2oc3nc(C)cc(C)c3c2N)cc1
→ 3.8e-09 | / | / | i | i
#26 Cc1ccc(S(=O)(=O)NC2CCOC(C)(C)C2)cc1 (stereo not drawn)
→ 3.1e-08 | -0.4% | -1% | i | i
#27 COc1cccc(CNn2cnnc2)c1OCc1ccccc1F
→ 3.1e-08 | 1.8% | 8% | i | i
#28 O=C(NCc1ccc2c(c1)OCO2)c1nnc(Cc2ccc(F)cc2)o1
→ / | -1.2% | 10% | / | /
#29 COC(=O)Cc1c(C)nc2nc[nH]n2c1=O
→ 1e-09 | 1.3% | 0% | i | i
#30 CCOc1ccc(N2CC(C(=O)OC)CC2=O)cc1 (stereo not drawn)
→ 1e-09 | -0.6% | -1% | i | i
#31 Cc1c(NC(=O)C(C)OC(=O)C(NC(=O)c2ccco2)C(C)C)c(=O)n(-c2ccccc2)n1C (stereo not drawn)
→ 4.9e-08 | 1.1% | 5% | i | i
#32 CCN(CC)C(=O)CSc1nc2ncc(Br)cc2[nH]1
→ 8.1e-09 | 0.4% | 5% | i | i
#33 Cc1cc(NC(=O)Nc2cccs2)no1
→ 3e-08 | 0.8% | -9% | i | i
#34 CCOc1ccc(C(=O)OCc2nnc(-c3cccs3)o2)cc1OC
→ 1e-09 | 0.8% | ? | i | i
#35 O=S(=O)(c1ccc(Br)s1)N1CCCCC1
→ 1e-09 | -1.0% | / | i | i
#36 CCn1cc(C(=O)N2CCCCC2)c(=O)c2cc(S(=O)(=O)N3CCC(C)CC3)ccc21
→ 1e-09 | 2.4% | 2% | i | i
#37 O=C1CCc2cc(S(=O)(=O)NC(C(=O)NCc3cccnc3)c3ccccc3)ccc2N1 (stereo not drawn)
→ / | -0.5% | 4% | / | /
#38 O=C(NCc1ccco1)c1cccc(S(=O)(=O)N2CCOCC2)c1
→ / | 1.3% | 3% | / | /
#39 C#CCCCO/N=C1/C[C@@H](O)[C@@H](O)[C@@H]2[C@@H]3C(=O)N(C4CCCCC4)C(=O)[C@H]3CC[C@H]12
→ / | 6.4%[11.5 µM] | -3%[11.4 µM] | / | /
#40 COC(=O)c1ccc(Cn2nc(C)c(Br)c2C)cc1
→ 1.3e-08 | -0.8% | 18% | i | i
#41 Cc1nc(CNS(=O)(=O)c2ccccc2F)cs1
→ / | -0.6% | 3% | / | /
#42 Cc1ccc2c(c1)[C@@H]1CN(C)CC[C@@H]1N2S(=O)(=O)c1ccc(F)cc1
→ 4.8e-08 | / | / | i | i
#43 CCOC(=O)C(NC(=O)Nc1ccc(F)cc1)(OCC)C(F)(F)F (stereo not drawn)
→ 5.9e-09 | -3.0% | 21% | i | i
#44 O=C(COc1ncnc2sccc12)N1CCc2ccccc2C1
→ 1.1e-08 | -0.9% | -1% | i | i
#45 COC(=O)Nc1ncc(CN2CCc3ccccc3C2)s1
→ 1.5e-08 | -0.4% | 6% | i | i

Profiles as entered above.
Profile of COC(=O)c1ccc(Cn2nc(C)c(Br)c2C)cc1 : A647 autofl = 1.3e-08; AID923 = -0.8%; TSHR agonist = 18%; A488 autofl = i; Resorufin fluor = i
Profile of Cc1ccc2c(c1)[C@@H]1CN(C)CC[C@@H]1N2S(=O)(=O)c1ccc(F)cc1 : A647 autofl = 4.8e-08; AID923 = /; TSHR agonist = /; A488 autofl = i; Resorufin fluor = i
Profile of O=C(NCc1ccco1)c1cccc(S(=O)(=O)N2CCOCC2)c1 : A647 autofl = /; AID923 = 1.3%; TSHR agonist = 3%; A488 autofl = /; Resorufin fluor = /

New compounds follow.
Fields – A647 autofl | AID923 | TSHR agonist | A488 autofl | Resorufin fluor
#46 CCOC(=O)c1c(N)nn(C(=O)CC)c1-c1ccccc1
→ 2.7e-08 | -0.1% | / | i | i
#47 CCCOC(=O)C1C2C=CC3(CN(c4cccc(Cl)c4)C(=O)C13)O2 (stereo not drawn)
→ / | 0.5% | -3% | / | /
#48 C=C(Cl)COC(=O)[C@H]1C2C=CC(C2)C1C(=O)O (stereo partly drawn)
→ 1e-09 | 0.5% | -4% | i | i
#49 O=C(Cc1ccccc1)N1CCCC(c2nc(-c3cccs3)no2)C1 (stereo not drawn)
→ 6e-08 | 0.7% | ? | i | i
#50 COc1cc2c(cc1O)[C@@H](c1cc(O)c(O)c(OC)c1)[C@@](O)(C(=O)O)[C@@H](CO)[C@@H]2O
→ 2.3e-08 | 0.0%[11.5 µM] | 8%[11.4 µM] | i | i
#51 O=C1c2ccccc2NC(c2cccc(F)c2)N1Cc1ccco1 (stereo not drawn)
→ 1e-09 | 3.9% | / | i | i
#52 CCc1nn(CC(=O)NCCCN(CC)Cc2ccccc2)c(=O)c2cc3sccc3n12
→ 4.3e-08 | -1.2% | 7% | i | i
#53 CCn1c2ccccc2c2nnc(SCC(=O)NC(CC(C)C)C(=O)OC)nc21 (stereo not drawn)
→ 1e-09 | -0.6% | 14% | i | i
#54 Nc1nc(C2CC2)c(Sc2sc(N)nc2C2CC2)s1
→ 1.8e-08 | -1.6% | -17% | i | i
#55 CC(C)Cn1c(-c2ccc(Cl)cc2)cnc1SCC(=O)N1CCOCC1
→ 6.4e-09 | 0.6% | 4% | i | i
#56 CCCc1[nH]nc2c1C(c1cccnc1)C(C#N)=C(N)O2 (stereo not drawn)
→ / | 1.7% | 0% | / | /
#57 Cc1ccc(OCC(=O)Nc2ccc(O)c(-c3nc4ccccc4o3)c2)cc1
→ / | 1.9% | 11% | / | /
#58 CCCn1c(SCc2nc(-c3cccs3)no2)nnc1-c1ccncc1
→ 3.4e-09 | -1.4% | 11% | i | i
#59 CC(=O)Nc1nc(=O)c2ccccc2s1
→ 3.4e-08 | 2.1% | 0% | i | i
#60 COC(=O)c1ccccc1NC(=O)C1CCN(S(=O)(=O)c2cc(C)ccc2OC)CC1
→ 2.4e-08 | 1.0% | 7% | i | i
#61 Cn1c(=O)[nH]c(=O)c2c1nc(CN1CCOCC1)n2CCCc1ccccc1
→ / | -4.6% | -2% | / | /
#62 COCCn1c(SCC(=O)Nc2nnc(C)s2)nnc1-c1cc2ccccc2cc1O
→ 1e-09 | 0.4% | 0% | i | i
#63 O=C(O)CCC(=O)Nc1ccc(N2CCCCCC2)cc1
→ 1.9e-08 | 2.4% | -4% | i | i
#64 CCOC(=O)Cc1cnc(NC(=O)Cn2nnc(-c3ccc(OCC)cc3)n2)s1
→ 1.9e-08 | 4.3% | 8% | i | i
#65 O=S(=O)(c1ccc(S(=O)(=O)N2CCCC2)cc1)N1CCCCCC1
→ 1e-09 | 0.1% | -4% | i | i
#66 Cc1cc(C)n(-c2nc3ccccc3n3cnnc23)n1
→ 3.7e-08 | 0.2% | ? | i | i
#67 Cc1ccc(S(=O)(=O)n2ccnc2)cc1C
→ / | -0.6% | ? | / | /
#68 COc1ccc(Cn2nnnc2C(c2ccccn2)N2CCN(c3cc(Cl)ccc3C)CC2)cc1 (stereo not drawn)
→ 1e-09 | -0.9% | ? | i | i
#69 N#Cc1nc(-c2ccc(OCc3ccccc3)cc2)oc1NCCN1CCOCC1
→ 4.4e-09 | 1.0% | -8% | i | i
#70 COc1ccc(C2CC(C(F)(F)F)n3ncc(C(=O)O)c3N2)cc1OC (stereo not drawn)
→ / | -0.1% | -1% | / | /
#71 O=S(=O)(NCc1ccco1)c1cccc(S(=O)(=O)N2CCOCC2)c1
→ 1.2e-08 | -2.7% | -3% | i | i
#72 COc1cccc(OCC(=O)N(Cc2nc(-c3ccc(Cl)cc3)no2)C(C)C)c1
→ / | 2.4% | 23% | / | /
#73 COc1ccc(S(=O)(=O)N(CC(=O)N2CCCC2)Cc2ccccc2)cc1
→ / | 0.5% | 7% | / | /
#74 COc1cc2cc(C(c3nnnn3C3CCCC3)N3CCc4ccccc43)c(=O)[nH]c2cc1OC (stereo not drawn)
→ 2.5e-08 | 0.9% | 6% | i | i
#75 CCC(C)N(CC(=O)NCc1ccc(OC)cc1)C(=O)c1csnn1 (stereo not drawn)
→ 3.8e-09 | -0.5% | -2% | i | i
#76 CC(C)(C)NC(=O)NC(=O)COC(=O)c1ccco1
→ 4.9e-08 | 0.2% | 4% | i | i
#77 N#Cc1ccc2ccn(CC(=O)NC3CCCCCC3)c2c1
→ 2.3e-08 | 2.2% | ? | i | i
